KCNQ2 inh = KCNQ2 channel blockers in CHO-K1 cells – cell-based, FluxOR thallium flux, B-score, primary screen (AID 2156); 20 min; stronger effect = lower value; only compounds with negative scores are shown here; some inactives read as strong as hits; B-score at 10 µM; 310,000 compounds, 1.1% hits;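 active means fluorescence ratio B-score at most minus 3 library SDs, with starting brightness B-score within 2 library SDs, cut at about -5.5 in these data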
Target sequence (O88943 whole entry, looked up): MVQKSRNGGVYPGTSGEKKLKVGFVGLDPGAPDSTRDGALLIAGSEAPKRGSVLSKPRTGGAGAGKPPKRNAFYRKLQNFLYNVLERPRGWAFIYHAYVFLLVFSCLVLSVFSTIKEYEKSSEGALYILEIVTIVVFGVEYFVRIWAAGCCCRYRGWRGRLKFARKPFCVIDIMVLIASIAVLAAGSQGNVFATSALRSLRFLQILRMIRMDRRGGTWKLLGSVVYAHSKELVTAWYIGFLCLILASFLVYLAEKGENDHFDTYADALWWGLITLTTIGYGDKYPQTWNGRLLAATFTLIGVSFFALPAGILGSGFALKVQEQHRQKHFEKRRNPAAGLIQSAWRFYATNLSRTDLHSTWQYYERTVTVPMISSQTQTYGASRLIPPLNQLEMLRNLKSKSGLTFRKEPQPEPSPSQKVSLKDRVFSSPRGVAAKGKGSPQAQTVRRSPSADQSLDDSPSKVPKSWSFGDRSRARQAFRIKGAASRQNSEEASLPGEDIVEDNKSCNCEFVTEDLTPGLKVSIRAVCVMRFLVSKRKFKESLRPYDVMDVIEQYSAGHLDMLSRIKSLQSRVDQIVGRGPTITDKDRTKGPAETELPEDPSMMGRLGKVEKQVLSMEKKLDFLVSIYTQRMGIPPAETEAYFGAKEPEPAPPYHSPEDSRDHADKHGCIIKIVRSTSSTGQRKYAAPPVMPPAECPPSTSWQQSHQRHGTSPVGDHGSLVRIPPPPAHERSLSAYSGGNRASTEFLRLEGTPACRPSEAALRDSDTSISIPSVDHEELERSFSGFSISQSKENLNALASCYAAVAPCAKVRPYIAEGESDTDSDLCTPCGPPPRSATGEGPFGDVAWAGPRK
KCNQ2 inh baseline = also measured in KCNQ2 inh; calls as there; B-score; measured here: initial fluorescence intensity artifact check;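 brightness before thallium and not channel activity; 0 = typical well and far values either way flag optical interference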
Starred values were filed as active, the others as inactive; i = inactive. Only part of the results is shown; the hit share may differ from the screen's.

SMILES	KCNQ2 inh	KCNQ2 inh baseline
CC1CCCN(C(=O)COC(=O)C2CCN(S(=O)(=O)c3ccc(Cl)c(C(F)(F)F)c3)CC2)C1 (stereo not drawn)	i	-1.2
CC(C)N1CCc2c(sc(NC(=O)CCS(=O)(=O)c3ccccc3)c2C#N)C1	i	0.33
CC(C)CCNC(=O)COc1ccc2c3c(c(=O)oc2c1)CCC3	i	0.31
CCCCC(=O)Nc1cccc(-c2nnc(-c3ccccc3)o2)c1	i	0.78
O=C(COC(=O)c1ccc2[nH]c3c(c2c1)CCCC3)Nc1ccc(Cl)cc1Cl	i	-0.41
CN(C)/C=C(/C(=O)c1ccc(Cl)cc1)n1cncn1	i	-0.04
CC(=O)Nc1ccc(Br)c2ccccc12	i	-1.2
Cc1cc2ncn(/N=C/c3ccc4c(c3)OCO4)c2cc1C	i	-1.8
CCc1ccc(C(O)(C(C)C)C(CN2CCOCC2)c2ccccc2)cc1 (stereo not drawn)	i	-1.1
Cc1cccc(OCC(=O)Nc2ccccc2C(F)(F)F)c1	i	-0.6
Cc1ccccc1NC(=O)c1ccc(S(=O)(=O)N2CCCC2)cc1	i	1.1
FC(F)(F)c1ccccc1NC(=S)NN=C1CCCCCC1	i	0.12
C=CCn1cc(Cl)cc(C(=O)Nc2ccccc2)c1=O	i	0.29
ClCCN1C2=NCCCN2c2ccccc21	i	0.11
O=C(Nc1cccc(F)c1)NC1CCCc2ccccc21 (stereo not drawn)	-5.6*	-1.7*

Continued; it opens with the 6 that closed the last part.
SMILES	KCNQ2 inh	KCNQ2 inh baseline
Cc1cccc(OCC(=O)Nc2ccccc2C(F)(F)F)c1	i	-0.6
Cc1ccccc1NC(=O)c1ccc(S(=O)(=O)N2CCCC2)cc1	i	1.1
FC(F)(F)c1ccccc1NC(=S)NN=C1CCCCCC1	i	0.12
C=CCn1cc(Cl)cc(C(=O)Nc2ccccc2)c1=O	i	0.29
ClCCN1C2=NCCCN2c2ccccc21	i	0.11
O=C(Nc1cccc(F)c1)NC1CCCc2ccccc21 (stereo not drawn)	-5.6*	-1.7*
CC1=CC(C)(C)Nc2ccc(OC(=O)CN3C(=O)c4ccccc4C3=O)cc21	i	-1.1
CN(C)C(CNc1ncnc2sccc12)c1ccccc1 (stereo not drawn)	i	0.01
Oc1sc(C=Nc2ccccc2)c2ccccc12	i	9.3
O=C(COc1ccc(Br)cc1)Nc1ccc2c(c1)C(=O)NC2=O	i	0.22
O=C(CNC(=O)c1cccc(F)c1)N/N=C/c1cc(Br)ccc1OCc1ccccc1	i	0.41
CCOC(=O)c1sc(NS(=O)(=O)c2ccc(NC(C)=O)cc2)nc1C	i	0.23
CN(C)c1ccc(CNS(=O)(=O)c2ccc3c(c2)NC(=O)CS3)cc1	i	-2.4
Cc1ccccc1S(=O)(=O)Cc1ccc(C(=O)N2CCN(c3ccc(F)cc3)CC2)o1	i	-1.4
CCCCCn1c(NC(=O)c2ccco2)c(S(=O)(=O)c2ccc(C)cc2)c2nc3ccccc3nc21	i	-0.04
COc1ccc(S(=O)(=O)NC2CC(=O)N(c3ccc4c(c3)OCCO4)C2)cc1 (stereo not drawn)	i	0.98
COc1ccc(-c2csc(CCn3nc(C)cc3C)n2)cc1	i	-1.3
Nc1ccc(N2CCOCC2)c2nonc12	i	0.81
COCCn1c(-c2ccc(C#N)cc2)nc2c1c(=O)[nH]c(=O)n2Cc1ccccc1	i	-2.6
COc1ccc(C(=O)NCCc2nnc3ccc(SCC(=O)N4CCOCC4)nn23)cc1	i	2.2
CN(C)/C=C1\NC(=S)N(c2ccc(Cl)cc2)C1=O	i	-2.1
COC(=O)c1cc2c(cc1Cl)SC(=NCCCN1CCOCC1)NS2(=O)=O	i	-0.21
Cc1cc(C(=O)Nc2ccccc2C(=O)N2CCCCC2)ccc1[N+](=O)[O-]	i	0.75
COc1ccc(-c2oc3ncnc(NCCCN4CCOCC4)c3c2-c2ccc(OC)cc2)cc1	i	-0.6
CCOC(=O)c1sc(NC(=O)C2CC(=O)N(c3ccccc3C)C2)nc1C (stereo not drawn)	i	-0.27
CCn1c(=O)cc(SCC(=O)Nc2cccc(SC)c2)c2ccccc21	i	3.3
N#CCc1ccc(NC(=O)c2ccc(S(=O)(=O)N3CCCC3)cc2)cc1	i	-1.3
N=c1oc2cc(O)ccc2cc1C(=O)Nc1ccc(Br)cc1	i	0.01
CC(=O)Nc1ccc(S(=O)(=O)Oc2ccc(C(=S)N3CCCCC3)cc2)cc1	i	-1.1
O=C(O)CN=C1NC2(CCCC2)Cc2ccccc21	i	-1.5
Cc1ccc(-n2c(-c3ccc(Cl)cc3)n[nH]c2=S)cc1	i	-0.13
O=C(OCCN(C1=NS(=O)(=O)c2ccccc21)c1ccccc1Cl)c1ccc(Cl)cc1	i	3.2
CC1=C(C(=O)OCc2ccccc2)C(c2ccccc2OS(=O)(=O)c2ccccc2[N+](=O)[O-])NC(=O)N1CCCC(=O)O (stereo not drawn)	i	0.53
CC(C)CN(Cc1cc2ccccc2[nH]c1=O)C(=O)c1cccnc1	i	0.4
C=CCSc1nc2sc(C)c(C)c2c(=O)[nH]1	i	0.33
Cc1ccc(/C=N\NC(=O)C2CN(S(=O)(=O)c3ccccc3)CCN2S(=O)(=O)c2ccccc2)cc1 (stereo not drawn)	i	-0.68
CCCCSc1cc(=O)n(-c2ccccc2)nc1C(=O)OCC	i	0.64
O=C1CN(C(=O)COC(=O)c2ccc(N3CCCCCC3)c([N+](=O)[O-])c2)c2ccccc2N1	i	-1.4
Cc1ccnc(N2C3CCC2CC(O)(c2ccccc2)C3)n1 (stereo not drawn)	i	1.5
CC(=O)N/C(=C\c1ccc(Br)s1)C(=O)O	i	-1.1
O=C(Nc1cccc(Cl)c1)OCc1cn(-c2ccc(Cl)cc2)nn1	i	-0.34
Cc1nn(C)c2ncc(C(=O)c3cc(F)ccc3O)cc12	i	1.7
COCCn1nnnc1SCC(=O)N1CCCCC1	i	-3.3
Cc1ccccc1CNC(=O)c1ccc(Cl)c([N+](=O)[O-])c1	i	1.2
COc1ccc(NC(=O)CSc2nnc3ccc(-c4ccncc4)nn23)cc1OC	i	0.24
COc1ccc(C2C(C(C)=O)=C(O)C(=O)N2c2ccc(Br)cc2)cc1 (stereo not drawn)	i	1.8
Cc1ccccc1OCC(=O)N/N=C/c1cccn1C	i	0.71
Cc1cc(C(=O)CN2C(=O)NC3(CCCc4sccc43)C2=O)c(C)n1-c1ccc(Cl)cc1 (stereo not drawn)	i	-0.05
COC(=O)/C=C1\SC(=Nc2ccccc2)NC1=O	i	-0.61
Cc1cc2c(n1-c1ccc(C(N)=O)cc1)CC(C)(C)CC2=O	i	1.7
COC(=O)c1ccc(C23CC4(C2)[C@H](CN(Cc2ccc(-c5ccccc5)cc2)[C@@H]4c2ccccc2)C3c2ccc(Cl)nc2)cc1 (stereo partly drawn)	i	0.8
CCOC(=O)C1(Cc2cccc(Cl)c2)CCCN(C(=O)c2cn[nH]c2)C1 (stereo not drawn)	i	-0.25
CCOC(=O)c1cnc2ccc(OC)cc2c1NCc1ccccc1	i	1.3
O=c1cc(C(Cl)(Cl)Cl)oc2c1ccc1ccccc12	i	1.7
CCOC(=O)c1cc(C#N)c(N2CCOCC2)nc1-c1ccccc1	i	0.4
COc1ccc(C(=O)Nc2ccc(S(=O)(=O)Nc3onc(C)c3C)cc2)cc1OC	i	-0.02
CCN(C(=O)Cc1ccc(NC2=NC3CS(=O)(=O)CC3S2)cc1)c1ccccc1 (stereo not drawn)	i	1.6
O=C(CCNC(=O)c1ccco1)Nc1ccc(OC(F)F)cc1	i	0.44
CC(=O)c1sc(NC(=O)COc2ccc(Cl)cc2C)nc1C	i	2.6
COc1ccc(C(O)c2nc3ccccc3s2)cc1 (stereo not drawn)	i	0.88
O=C(Nc1ccc(F)cc1)Nc1nnc(COc2ccccc2F)s1	i	-1.1
c1ccc(OCCOCCN2CCN(C(c3ccccc3)c3ccccc3)CC2)cc1	i	1
Nc1nc(CSC(=S)N2CCCCC2)nc(Nc2ccccc2)n1	i	0.37
CCOC(=O)C1CCN(S(=O)(=O)CCNC(=O)c2ccc3c(c2)OCO3)CC1	i	-1.6
COc1ccc2[nH]c(C)c(CCN(Cc3cccs3)C(=S)Nc3ccccc3OC)c2c1	i	1.3
C(=N\c1nc2ccccc2n1CCN1CCCCC1)/c1ccc2c(c1)OCO2	i	-1.1

No new results follow: entries from further up.
SMILES	KCNQ2 inh	KCNQ2 inh baseline
CCOC(=O)C1CCN(S(=O)(=O)CCNC(=O)c2ccc3c(c2)OCO3)CC1	i	-1.6
COc1ccc2[nH]c(C)c(CCN(Cc3cccs3)C(=S)Nc3ccccc3OC)c2c1	i	1.3
C(=N\c1nc2ccccc2n1CCN1CCCCC1)/c1ccc2c(c1)OCO2	i	-1.1

More structures
SMILES	KCNQ2 inh	KCNQ2 inh baseline
Cc1ccc(-c2nnc(N)s2)cc1	i	1.1
CCOc1ccccc1NC(=S)N1CCN(c2ccccc2)CC1	i	-1
CN(Cc1ccccc1)C(=O)COC(=O)c1cc(-c2ccc(Cl)s2)nc2ccccc12	i	-0.08
CC1=NN(C(C#N)c2ccc(F)cc2)C(c2ccccc2)C1 (stereo not drawn)	i	0.71
O=C(Nc1ccc(Br)cc1)NC1CCCCCCC1	i	-1.3
O=c1c2cc(NC(=S)NCc3ccccn3)ccc2nc2n1CCCCC2	i	0.58
COc1ccc2[nH]c3c(c2c1)CCN1C(=O)N([C@@H](C)C(=O)NC2CCCC2)C(=O)[C@]31C	i	0.04
Cc1ccc(C(=O)COC(=O)CNC(=O)c2cccs2)cc1C	i	-0.6
O=C1OCCN/C1=C\C(=O)c1ccc(Cl)cc1	i	0.06
COc1ccc(S(=O)(=O)N2CCCCC2)cc1NC(=O)C1COc2ccccc2O1 (stereo not drawn)	i	-0.98
CN(C)CCN1C(=O)c2oc3ccc(Cl)cc3c(=O)c2C1c1cccc(Br)c1 (stereo not drawn)	-6.3*	-1.1*
Cc1ccc(Cl)cc1N1CCN(C(=O)CSc2ccsc2[N+](=O)[O-])CC1	i	-0.17
C/C(=N\NC(=O)C(N)=O)c1ccc(O)cc1O	i	-0.55
COc1ccc(Cl)cc1NC(=O)CN(C)C(C)C(=O)NCC1CCCCC1 (stereo not drawn)	i	0.82
Cc1ccc(-n2c(SCC(=O)NNC(=S)Nc3ccccc3)nc3ccccc3c2=O)cc1	i	0.08
Cc1cc(OCc2nc3ccccc3s2)ccc1N	i	0.22
Cn1c(SCC(=O)NC2CCCC2)nnc1-c1ccco1	i	-0.36
CCN(CC)C(=O)CSc1nc(N)c(-c2ccccc2)c(=O)[nH]1	i	3.8
COc1ccc(C(=O)C2CCCN(C(=O)C3=CCCC3)C2)cc1OC (stereo not drawn)	i	0.56
COc1cccc(N2CC(C(=O)Nc3ccc(F)cc3)CC2=O)c1 (stereo not drawn)	i	-0.14
CCOc1cc(C2NC(=O)N(C)C(C)=C2[N+](=O)[O-])ccc1OC(C)=O (stereo not drawn)	i	0.19
O=C(CSCc1ccccc1)NCc1ccc2c(c1)OCO2	i	-0.13
CN(C)S(=O)(=O)c1ccc(NC(=O)c2ccc3ncsc3c2)cc1	i	1.1
C=CCNC(=O)c1c(N)n(-c2cccc(S(N)(=O)=O)c2)c2nc3ccccc3nc12	i	-0.81
Cc1cccc(Nc2nnc(SCC(=O)Nc3cccc(S(=O)(=O)N4CCCCC4)c3)s2)c1	i	-2.1
OC1=C(O)c2nc3cc(C(F)(F)F)ccc3nc21	i	-1.6
N#Cc1ncc(Cc2ccccc2)nc1C#N	i	1.1
O=C(NCCCc1ccccc1)c1cccs1	i	1.4
CC(C)CCNC(=O)COC(=O)c1cc(Br)c(Br)s1	i	-0.17
Cc1cc(C)cc(N(CCC#N)C(=O)COC(=O)C2CCN(c3ccc(C(F)(F)F)cn3)CC2)c1	i	1.5
O=c1c2cn(Cc3ccc(F)cc3)c3ccccc3c-2nn1Cc1ccc(F)cc1	i	-0.08
O=C(Nc1ccc(F)cc1F)c1c(C(F)(F)F)ccnc1Oc1ccccc1	i	0.01
Cn1c(CN2CCCC2)nc2cc(NC(=O)c3ccc(Cl)cc3)ccc21	i	-0.35
CCCCNS(=O)(=O)c1ccc(OC)c(C)c1	i	1.8
O=C(c1ccc(OC2CCN(Cc3ccccn3)CC2)cc1)N1CCCCCC1	i	0.34
O=S(=O)(Nc1ccc(N=Nc2ccccc2)cc1)c1ccccc1	i	1.1
COc1ccc(NS(=O)(=O)c2cccc(C(=O)NCC(c3ccco3)N3CCCCC3)c2)cc1 (stereo not drawn)	i	0.23
Cc1ccc(/C=C/C(=O)Nc2sc(C)c(C)c2C(=O)OC(C)C)o1	i	1.9
O=C(Nc1ccc(N2CCOCC2)cc1)c1cccc(S(=O)(=O)N2CCCCCC2)c1	i	2.8
COc1ccc(C(=O)N(Cc2nc(-c3ccc(C)cc3)no2)C(C)C)cc1OC	i	0.44
COC(=O)c1sc2ccccc2c1-n1cccc1C(=O)C(=O)Nc1ccc(C)cc1	i	0.42
Cc1cccc(OCC(=O)Nc2cc(S(=O)(=O)N3CCCCC3)ccc2N2CCN(C)CC2)c1	i	-0.27
COc1ccc(N(CC(=O)Nc2ccc3c(c2)OCO3)S(=O)(=O)c2ccccc2)cc1OC	i	0.08
COC(=O)c1ccc(CSc2ccc3nnc(-c4ccccc4)n3n2)o1	i	1.3
CCCCN(CC)CCNC(=O)Cn1cnc2sc(C)c(S(=O)(=O)N3CCOCC3)c2c1=O	i	3.1

One compound at a time (already shown). Screens in order: KCNQ2 inh	KCNQ2 inh baseline
Listed for COC(=O)c1ccc(CSc2ccc3nnc(-c4ccccc4)n3n2)o1 → i	1.3
Listed for COc1ccc(C(=O)N(Cc2nc(-c3ccc(C)cc3)no2)C(C)C)cc1OC → i	0.44
Listed for O=C(c1ccc(OC2CCN(Cc3ccccn3)CC2)cc1)N1CCCCCC1 → i	0.34
Listed for CCCCNS(=O)(=O)c1ccc(OC)c(C)c1 → i	1.8

Assay outcomes: PubChem BioAssay, Johns Hopkins Ion Channel Center
